Compound activity as filed in PubChem.
PINK1 expr mod: changes PINK1 expression; PINK1 immunofluorescence, high-content cytometry, 24 h; Potency, µM (doses to about 76.6 µM), inactives show top-dose activation (PINK1 increase), hits mostly activators; actives 0.2% (n = 410,000); active = well fitted activation curve with a large enough effect; inconclusive = small, poorly fitted or top-dose-only effect; inactive = flat fitted curve, though single readings scatter; cell line not stated here;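 also: potency is read from the fitted curve at half-maximal effect; % of control where 0% means no effect; nearly all actives have a fitted effect of over 65% in size; a mitochondrial uncoupler was the plate control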
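Compound titrations (5 concentrations, 24 h) on a stable cell line; DMSO and CCCP controls. Endpoint: fixed-cell PINK1 immunofluorescence with mitochondrial, cell and nuclear markers, scanned by microplate cytometer.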
D2 ag: activates the human D2 dopamine receptor | DiscoveRx PathHunter D2 beta-arrestin, luminescence, 90 min; 100% = 57 uM dopamine signal | P14416 | activation, % (no concentration beside the values) | actives 0.084% (n = 360,000) | AID 624465; in the data active = activation above about 40%; inconclusive = about 15% to 40%; inactive = below about 15%; also: compound concentration not given in the record; the text of the record calls up to 30% inactive
Target sequence (P14416 whole entry, looked up): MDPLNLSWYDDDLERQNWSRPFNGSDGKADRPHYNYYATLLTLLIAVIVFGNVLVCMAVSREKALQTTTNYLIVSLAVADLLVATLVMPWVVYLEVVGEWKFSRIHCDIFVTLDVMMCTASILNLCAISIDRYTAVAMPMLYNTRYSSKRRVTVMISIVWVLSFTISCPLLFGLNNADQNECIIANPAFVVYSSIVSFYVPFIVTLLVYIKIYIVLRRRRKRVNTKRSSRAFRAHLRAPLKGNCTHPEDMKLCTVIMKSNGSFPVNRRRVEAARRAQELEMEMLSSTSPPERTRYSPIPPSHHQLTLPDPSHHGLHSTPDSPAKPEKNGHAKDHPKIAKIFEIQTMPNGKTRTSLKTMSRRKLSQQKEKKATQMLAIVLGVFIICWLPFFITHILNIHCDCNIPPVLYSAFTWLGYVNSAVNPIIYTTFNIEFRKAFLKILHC
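Agonist mode: compounds alone added to overnight-plated D2 PathHunter cells for 90 min at 37 C, with 57 uM final dopamine (EC100) defining full response. Beta-arrestin recruitment detected by chemiluminescent reagent, read after 1 h at ambient temperature.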
Menin MLL FP FL: menin-MLL binding inhibition, fluorescein peptide; AID 1766; FP activity change, % at 61.4 µM; 290,000 tested, under 10 active; Fluorescence polarization, fluorescein-MLL peptide displacement from menin; inconclusive = falling polarisation curve, or a change in total fluorescence; inactive = total fluorescence flat and polarisation flat or rising; no compound was filed as active; the % refers to the polarisation; negative = inhibition;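 also: % of control where 0% means no effect; inhibitors lower the polarisation; unlabelled MLL peptide was the positive control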
ClpP mod: qHTS Assay for Activators of ClpP; actives 1.9% (n = 340,000); Potency, µM (titrated, usually from 57.5 µM), for the others: top-dose activity change, negative = active; ATP-dependent Clp protease proteolytic subunit (Bacillus subtilis (strain 168)), P80244; purified B. subtilis ClpP, FRET peptide cleavage, 20 min; AID 651965, 2013; active = well fitted falling curve with a large enough effect; inconclusive = small, poorly fitted or top-dose-only effect; inactive = no such curve, though single readings can be large or run the other way; also: potency is read from the fitted curve at half-maximal effect; the source files actives as falling curves though it sought activators and does not explain the sign; nearly all actives have a fitted effect of over 65% in size; many hits overshoot -100%
Target sequence (P80244 whole entry, looked up): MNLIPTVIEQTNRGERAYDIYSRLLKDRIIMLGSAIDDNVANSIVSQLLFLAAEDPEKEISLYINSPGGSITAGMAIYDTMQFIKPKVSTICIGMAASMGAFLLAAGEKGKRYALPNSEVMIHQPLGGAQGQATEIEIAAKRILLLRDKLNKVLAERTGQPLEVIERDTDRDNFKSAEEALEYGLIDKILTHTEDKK
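FRET quenching reversal measured ClpP activation: 10 microg/mL B. subtilis ClpP at pH 8 with the FRET-FV decapeptide, read at 430 nm after 320 nm excitation. The 20-min minus 0-min signal was scaled between DMSO/no-enzyme wells and ADEP (5.8 microM final).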
gsp antag: gsp mutant antagonism. gsp-mutant cells, cAMP HTRF, 30 min; control for the full effect not named in the record. Potency, µM (doses to about 76.9 µM), without a hit: at the highest dose activity change, negative = inhibition, usual class: inhibitors. actives 0.4% (n = 340,000); active = falling curve of any shape with a large fitted effect; inconclusive = falling curve, mostly with a smaller effect; inactive = flat or rising curve; cell line not stated here;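 also: intracellular cAMP measured with PDE inhibitor Ro 20-1724 present during compound exposure; potency is read from the fitted curve at half-maximal effect; % is scaled to controls: 0 for no effect and ±100 for the full control effect; nearly all actives have a fitted effect of over 65% in size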
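HTRF cAMP read-out (cAMP-d2 plus anti-cAMP antibody-K in lysis buffer, 30 min RT). Before lysis, cells are exposed to compounds with […] for 30 min at 37C in DPBS containing Ca/Mg, BSA and Tween 20.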
gsp agonist: activates gsp, the McCune-Albright syndrome mutation | gsp mutant cells, cAMP HTRF, 30 min; control for the full effect not named in the record | Potency, µM (doses to about 76.9 µM), for inactives: at the top dose activation (cAMP increase), hits mostly activators | actives 0.13% (n = 340,000); active = well fitted activation curve with a large enough effect; inconclusive = small, poorly fitted or top-dose-only effect, or another doubt; inactive = no such curve, though single readings can be large or run the other way; cell line not stated here;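 also: phosphodiesterase inhibitor Ro 20-1724 added with compounds to block cAMP breakdown; potency is read from the fitted curve at half-maximal effect; nearly all actives have a fitted effect of over 60% in size; about a fifth of the inactives were tested at one dose only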
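Cells stably selected in G418 were plated at 2000/well, grown 16-24 hr, then given compounds in DMSO with the PDE inhibitor […] (300 uM solution added) for 30 min at 37C; cAMP was read by HTRF.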
Sfp inh: inhibitors of Bacillus subtilis Sfp phosphopantetheinyl transferase; actives 3.5% (n = 310,000); Potency, µM, for the others: max response, negative = inhibition, hits mostly inhibitors; Biochemical Sfp PPTase activity, qHTS; AID 1490; active = well fitted inhibition curve with a large enough effect; inconclusive = small, poorly fitted or top-dose-only effect, or another doubt; inactive = no such curve, though single readings can be large or run the other way;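 also: the enzyme is Sfp with the accession as filed and its product quenches rhodamine fluorescence; potency is read from the fitted curve at half-maximal effect; 0% = enzyme reaction without inhibitor and -100% = no enzyme wells; top concentration of the series not given in the record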
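Buffer: 50 mM Hepes-Na pH 7.6, 10 mM MgCl2, 0.01% Nonidet P-40, 0.01% BSA. Enzyme 15 nM, pre-exposed to compound 15 min; substrates then added and fluorescence change tracked over 30 min.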
An asterisk follows results filed as active; ? = inconclusive; · = not tested or not shown; [ ] = remark or other dose.

SMILES	PINK1 expr mod	D2 ag	Menin MLL FP FL	ClpP mod	gsp antag	gsp agonist	Sfp inh
FC(F)(F)c1ccccc1NC(=S)N1CCCCCC1	1.3%	-3.1	·	0.9%	8.4%	?	4.2%
CCNC(=O)c1ccc(-n2nc(C(F)(F)F)c3c2CCCC3)cc1	8.0%[38.3 µM]	0.0	0.2	0.8%	-3.1%	19.9%	2.7%
CCN(CC)c1ccc(C(=O)N/N=C(\C)c2ccc(OC)c(OC)c2)cc1	2.5%	-2.4	-2.4	-11.3%	9.7%	-3.7%	-10.1%
CCOCCCNC(=O)C1CCC(=O)N1CCc1ccccc1 (stereo unspecified)	2.2%	-0.1	1.2	-1.2%	0.2%	1.9%	-4.0%
O=C(NCC1CCCO1)C(=O)NCC(c1ccco1)N1CCN(c2ccc(F)cc2)CC1 (stereo unspecified)	-1.8%	-2.6	-0.3	-1.8%	5.4%	-29.4%	8.2%
Cc1ccc(Cc2c(-c3cccc(Cl)c3)nc3ccc(Br)cn23)cc1	2.1%	-1.7	·	-8.5%	·	·	·
Cc1ccnc2nc(C(=O)OCC(=O)N(C)C3CCCCC3)nn12	1.5%	-2.5	·	0.7%	·	-41.7%[inhibitor]	·
O=C(O)c1ccc(Nc2nc(-c3cc4ccccc4oc3=O)cs2)cc1O	-0.4%	-1.1	11.6	·	?	3.5%[15.4 µM]	35.5µM*
Cc1cccc(NC(=O)Cn2ccn(-c3ccc4c(c3)OCCO4)c(=O)c2=O)c1	-1.5%	-5.3	·	1.6%	-9.8%	-1.1%[15.4 µM]	·
Cc1cccc2c1-c1sc(C(=O)Nc3cccc([N+](=O)[O-])c3C)cc1CO2	-0.5%	-7.0	1.7	-3.7%	-3.2%	-17.2%[15.4 µM]	-16.8%
CCCNC(=O)C1(C)CCCN(Cc2ccccc2C#N)C1 (stereo unspecified)	2.4%	2.2	·	0.2%	·	·	·
COc1ccc(CC(=O)NC(C)CCc2ccccc2)cc1OC (stereo unspecified)	1.2%	-2.6	3.6	-2.8%	5.0%	-7.2%[15.4 µM]	17.2%
CC(C)c1ccc(N(C(=O)c2csnn2)C(C(=O)NC(C)(C)C)c2cccnc2)cc1 (stereo unspecified)	0.5%	-4.7	0.0	1.1%	-3.2%	-10.6%	25.7%
O=C(NCc1ccc(Cl)cc1)C1CCCN(c2ncnc3c2nc2n3CCCCC2)C1 (stereo unspecified)	1.5%	-6.9	0.1	1.0%	-2.4%	-3.5%	5.0%
CC(C)(C)NC(=O)CSc1nccn1Cc1ccccc1	2.6%[38.3 µM]	-1.6	?	-0.5%	-0.2%	-9.2%	21.3%
CC(=O)NNC(=O)CC(=O)Nc1nc(C23CC4CC(CC(C4)C2)C3)cs1	4.6%	-0.3	6.3	0.4%	-7.3%	-10.4%	-0.1%
COc1cccc(N(CC(=O)Nc2cccnc2)S(C)(=O)=O)c1	2.0%	-2.6	-5.9	·	-4.0%	12.4%	16.1%
CN(C)S(=O)(=O)c1ccc(NC(=O)c2ccccn2)cc1	-2.9%	-0.9	-0.1	1.1%	-3.6%	2.0%	-19.2%
COc1ccc(C/C(C)=N/NC(=S)Nc2ccc(C(C)C)cc2)cc1	-0.1%	1.5	-3.0	-1.3%	0.9%	?	-1.1%
Cc1c(C(=O)NC(c2ccccn2)C(F)(F)F)oc2c(F)cccc12 (stereo unspecified)	8.1%	-4.0	-8.0	-4.9%	0.7%	6.7%	17.8%
O=C(COC(=O)c1cccnc1Cl)Nc1ccc2c(c1)OCO2	1.4%	-3.5	-1.1	-0.3%	2.5%	-6.3%	2.5%
COc1cc(CCC(=O)OCC(=O)Nc2ccc(Br)cc2F)cc(OC)c1OC	-0.4%	-3.6	-7.3	·	10.2%	2.8%	10.2%
CC(C)Oc1cccc(C(=O)C2CCCN(S(=O)(=O)C(C)C)C2)c1 (stereo unspecified)	-0.2%	1.6	-1.9	0.0%	-21.0%	23.1%[15.4 µM]	10.5%
O=C(c1cccc(Cl)c1)c1nn(-c2ccccc2)c(=O)cc1C(F)(F)F	0.3%	-3.6	2.2	-2.2%	2.9%[15.4 µM]	?	-1.9%
COc1cccc2cc(C(=O)C3=C(O)C(=O)N(Cc4ccco4)C3c3cccnc3)oc12 (stereo unspecified)	0.2%	3.3	5.6	-0.6%	-2.0%	10µM*	?

Next structures
SMILES	PINK1 expr mod	D2 ag	Menin MLL FP FL	ClpP mod	gsp antag	gsp agonist	Sfp inh
CCOC(=O)Cc1nnc(NC(=O)COc2ccc(F)cc2)s1	1.0%[38.3 µM]	-1.0	-0.3	-0.9%	-5.9%	13.0%	14.1%
CCn1c(-c2ccc([N+](=O)[O-])cc2)n[nH]c1=S	-1.9%	4.0	4.4	-3.4%	-12.1%	0.2%	4.2%
COC(=O)c1cc2sccc2n1CC(=O)Nc1cc(OC)cc(OC)c1	·	2.3	7.9	-10.1%	-0.3%	5.4%	18.6%
CCOC(=O)CCSc1nc(C)c2cc(C)c(C)cc2n1	-1.6%	-4.5	0.9	-0.5%	-8.7%	?	?
CCCCNC(=O)c1cc2c(=O)n3cccc(C)c3nc2n(Cc2ccccc2)c1=N	-6.3%[38.3 µM]	-2.2	0.2	?	-16.0%	-38.5%[inhibitor]	9.1%
CCOc1ccc(S(=O)(=O)N(C)CC(=O)NCc2ccco2)cc1	1.5%	0.1	-6.7	·	0.9%	12.5%	10.1%
O=C(CCn1c(=S)[nH]c2cc3c(cc2c1=O)OCO3)NCc1ccccc1Cl	1.2%	-1.8	·	-1.4%	19.4%	23.4%	2.9%
CCOC(=O)NCCc1c(C)nc2c(c(C)nn2C(C)(C)C)c1C	-1.1%	0.4	2.6	-16.2%	-16.1%	25.7%	13.7%
Cc1onc(-c2ccccc2)c1NC(=O)N(CCC(=O)O)Cc1ccccc1	-1.7%	0.9	-0.3	·	11.1%	-5.1%	15.5%
COC(=O)C1=C(C)N(Cc2ccccc2)C(=S)N[C@H]1c1ccc(Br)cc1	0.5%	0.9	-2.3	2.4%	-12.0%	16.1%	8.8%
Cc1ccc(S(=O)(=O)C(C#N)c2nc3ccccc3nc2OCCO)cc1 (stereo unspecified)	4.5%	-4.2	4.3	1.1%	?	13.9%	19.8%
CN(C)S(=O)(=O)c1cccc(NC(=O)CN2C(=O)NC(CCc3ccccc3)C2=O)c1 (stereo unspecified)	2.0%	-2.1	0.1	-1.4%	-1.8%	-98.2%[inhibitor]	9.3%
COc1ccccc1N1CCN(C2=CC(=O)CCC2)CC1	6.9%[38.3 µM]	-0.3	1.0	-1.2%	4.0%	-3.4%	4.2%
N/C(=N\N=C\c1cccs1)SC1CC(=O)N(c2cccc([N+](=O)[O-])c2)C1=O (stereo unspecified)	2.0%	1.8	0.1	·	-4.4%	-0.6%[15.4 µM]	?
O=C(Nc1ccc(C(=O)N2CCCCC2)cc1)Nc1cccc(Cl)c1	3.2%	-3.3	·	-18.7%	-26.3%	17.5%	11.9%
COc1ccc(NCCc2ccccn2)cc1	-0.6%	1.3	7.4	-1.3%	4.5%	-25.5%	-26.3%
CCOc1ccccc1NS(=O)(=O)c1ccc(OC)c(OC)c1	0.9%[38.3 µM]	-3.2	4.7	0.6%	-1.6%	-47.1%[inhibitor]	-1.9%
CC(=O)c1cccc(NS(=O)(=O)c2ccc(-c3cnc(C4CC4)o3)cc2)c1	7.4%	7.2	·	1.2%	17.4%	20.7%	5.3%
CCN(C(=O)CCN1C(=O)S/C(=C\c2ccccc2)C1=O)C1CCS(=O)(=O)C1 (stereo unspecified)	-0.8%	5.3	-3.8	-1.1%	-11.3%	-86.4%[inhibitor]	11.8%
Cc1ccc(C)n1CCN1CCN(C(=O)c2ccc(Cl)cc2)CC1	0.1%	-0.4	0.0	·	3.7%	-18.6%[15.4 µM]	-23.6%
Cc1ccc(C)n1-c1ccc(C(=O)NCc2ccncc2)cc1	3.1%	0.8	-3.4	-1.6%	7.0%	-4.0%	2.3%
Cn1nnc2cc(NC(=O)Nc3cccc(C(F)(F)F)c3)ccc21	1.4%	-5.1	-12.0	3.8%	5.7%	24.7%	6.3%
C[C@@H](NC(=O)[C@@H]1Cc2ccccc2CN1)C(=O)NC1CCCCC1	-0.5%	1.4	·	·	13.9%	-12.7%	13.6%
COc1ccc(NC(=S)N2C3CCC2CC(NC(=O)NC24CC5CC(CC(C5)C2)C4)C3)c(OC)c1 (stereo unspecified)	·	-2.0	3.1	-2.9%	-20.2%	13.1%	11.8%
Cc1ccc2ncccc2c1N	-0.9%	0.2	1.2	-8.2%	-1.2%	0.7%[15.4 µM]	12.7%

Further compounds.
SMILES	PINK1 expr mod	D2 ag	Menin MLL FP FL	ClpP mod	gsp antag	gsp agonist	Sfp inh
COc1cc(NC(=O)COC(=O)c2nc3nc(C)cc(C)n3n2)cc(OC)c1	-5.0%[38.3 µM]	1.1	-2.5	-1.2%	7.5%	16.9%	19.3%
Cc1ccc(-n2c(-c3ccncc3)n[nH]c2=S)cc1C	0.9%	8.2	-5.3	-3.7%	-10.6%	-2.5%	44.7µM*
O=C(Nc1cccc([N+](=O)[O-])c1)C1CC(=O)N(Cc2ccccc2)C1 (stereo unspecified)	0.4%	-1.1	-1.4	·	-9.9%	8.2%[15.4 µM]	17.1%
CC(C)c1cc(CN2CCN(CCC#N)CC2)cc(C(C)C)c1O	-0.5%	-2.5	2.3	-2.5%	17.6%	2.4%	3.6%
CS(=O)(=O)Nc1ccc(C(=O)N2CCCC2)cc1	1.8%[38.3 µM]	-0.4	1.9	-0.1%	6.2%	-10.0%	6.9%
Cc1ccnn1CCSCC(=O)O	2.4%[38.3 µM]	-0.4	4.2	1.0%	11.7%	-19.2%	7.0%
CN(CC1CCOCC1)C(=O)c1ccc2nc(Cc3cccc(Cl)c3)oc2c1	1.1%	2.9	·	-2.4%	4.9%	-4.3%	3.5%
O=C(NC(=S)N(CCO)Cc1ccccc1)c1cc(Br)ccc1Cl	-0.8%	-5.3	0.8	-2.3%	-14.6%	?	8.6%
CCN(CC)C(=O)N1c2ccccc2Sc2ccccc21	14.8%	-6.6	0.6	-0.1%	-16.8%	-23.5%	-4.8%
